Ba CapD inh – CapD enzyme inhibition | z-score (concentration not given with the values) | purified CapD enzyme, fluorescence intensity read-out; stronger effect = lower value; some hits fall short of the stated cut | 140,000 tested, 0.23% active | AID 492967;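 active = z-score under -4 in either of two replicates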;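 also: stock transfer was 100 nL into about 40 µL; score is relative to mean and spread of the plate; one replicate is shown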
AID504770 – growth inhibitors of E. coli YBA685 in a screen for V. cholerae RctB (chromosome II replication) inhibitors | z-score (no concentration beside the values) | E. coli YBA685 rctB-dependent plasmid, OD600 growth, 3 h; stronger effect = lower value | 130,000 tested, 0.27% active | AID 504770;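 active = z-score under -2 on both plates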;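 also: wells of about 30 µL received 100 nL stock; score is relative to mean and SD of the test wells; the first replicate is given; strong numbers were not always called active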
* hit, by the source's call; i = inactive; · = not tested or not shown; & = joins results of further samples.

Sample of the layout:
Order of results: Ba CapD inh	AID504770
COc1ccccc1N=Cc1c(O)n(-c2ccccc2OC)c(=O)[nH]c1=O
→ 1.4	0.05
O=S(=O)(CS(=O)(=O)c1cccc(Cl)c1)c1cccc(Cl)c1
→ 0.77	-1.1
Sc1ccc2oc3ccc(S)cc3c2c1
→ ·	0.4
Cc1cc(/C=N/NC(=O)c2ccc[nH]2)c(C)n1-c1cccc(C(F)(F)F)c1
→ 1.8	·

The listing, from the first entry:
Order of results: Ba CapD inh	AID504770
COc1ccccc1N=Cc1c(O)n(-c2ccccc2OC)c(=O)[nH]c1=O
→ 1.4	0.05
O=S(=O)(CS(=O)(=O)c1cccc(Cl)c1)c1cccc(Cl)c1
→ 0.77	-1.1
Sc1ccc2oc3ccc(S)cc3c2c1
→ ·	0.4
Cc1cc(/C=N/NC(=O)c2ccc[nH]2)c(C)n1-c1cccc(C(F)(F)F)c1
→ 1.8	·
CC(C)Sc1nc2ccccc2n1CC(=O)O
→ i	0.4
c1ccc(CNc2ncnc3c2cnn3-c2ccccc2)cc1
→ -0.85	-0.95
CN(C)C(=O)NCc1ccc(Cl)cc1
→ 0.24	1.4
N#CCc1nnc2n1-c1ccccc1SC2
→ -0.2	-0.05
O=C(O)COc1ccccc1/C=C1/SC(=S)N(Cc2ccco2)C1=O
→ -2	2.7
CCOc1ccc(NC(=O)c2ccnc(N3CCC(C(=O)N4CCOCC4)CC3)c2)cc1
→ 0.56	1.6
Nc1nc(CSc2nc3ccccc3s2)nc(N2CCCCC2)n1
→ -0.79	·
O=C(NCc1ccco1)c1ccccc1OCc1ccc(Cl)cc1
→ ·	-0.9
CC(C)c1ccc2c(c1)C(=O)NC(C)(C)C2
→ 0.18	1.8
OC1(C(F)(F)F)CC(c2ccc3ccccc3c2)=NO1 (configuration not stated)
→ 7.5	-0.45
Cc1cc(NC(=O)CSc2cn(C)c3ccccc23)no1
→ -0.44	0.2
CCC(Sc1nnnn1-c1ccccc1)C(=O)Nc1sc2c(c1C#N)CCCC2 (configuration not stated)
→ -0.085	-0.15
Cc1cc(C)n(Cc2c(C(=O)O)noc2C)n1
→ ·	-0.95
COc1ccc(-c2cc3nc(C4CCN(C(=O)OC(C)(C)C)CC4)c(C(=O)O)cn3n2)cc1
→ 21	-0.55
COc1cccc(N2CC(=O)N(N)CC2=O)c1
→ 0.35	-1.2
CC(CN1CCN(Cc2ccccc2)CC1)N(C(=O)c1ccc(C(C)(C)C)cc1)c1ccccn1 (configuration not stated)
→ 0.005	1.5
CCc1ccc(C2=NN(C(=O)CCC(=O)O)C(c3ccco3)C2)cc1 (configuration not stated)
→ ·	-0.45
Cc1ccc(Oc2ncnc3sccc23)cc1
→ 0.47	2.4
O=C(COC(=O)C1(c2ccc(F)cc2)CCCC1)NC1CCCC1
→ -0.53	0.05
O=C1CSC2(C(=O)Nc3ccccc32)N1c1ccc(Cl)cc1 (configuration not stated)
→ -0.055	·
COC(=O)c1c(-c2ccccc2)csc1-n1c(C)ccc1C
→ ·	0.35
COC(=O)c1ccc2c(=O)n(CCO)c(SCCOc3ccccc3C)nc2c1
→ ·	-0.35
O=C1c2cccc(OCc3ccc(Cl)cc3)c2CCN1Cc1cccnc1
→ -0.48	1.2
O=C(NCc1ccc(F)cc1)C1CC(=O)N(Cc2cnn(-c3ccccc3)c2-n2cccc2)C1 (configuration not stated)
→ -0.46	0.45
O=C(CCCn1c(SCC(=O)Nc2ccccc2Cl)nc2ccccc2c1=O)NCCCN1CCOCC1
→ -0.44	·
COC(=O)c1cc(C(=O)OC)cc(N2C(=O)CSC2c2cccc(C(F)(F)F)c2)c1 (configuration not stated)
→ -2	·
O=C(Cn1cnnn1)Nc1ccc(Cl)c(Cl)c1
→ ·	0.4
CC1(C)C2CCC1(C)C(NC(=O)c1cccc(C(F)(F)F)c1)C2 (configuration not stated)
→ -0.015	-1
O=C(COC(=O)c1ccco1)NCc1ccccc1
→ ·	0.45
CCOC(=O)C1=C(c2ccccc2)S/C(=C2/C(=S)C(C)(C)N(C(=O)C(F)(F)F)c3ccc(OC)cc32)S1
→ -0.43	·
OC1CCSc2ccc(Cl)cc21 (configuration not stated)
→ 0.29	1.3
COc1ccccc1N1C(N)=NC(N)=NC12CCCCC2
→ -0.58	-1.3
Nc1ccccc1NC(=S)Nc1cccc(C(F)(F)F)c1
→ -0.26	·
CN(c1ccc(C(=O)CSc2nnc(-c3ccco3)n2C2CCCCC2)cc1)S(C)(=O)=O
→ ·	2.6
CNC(=O)c1ccc2c(c1)NC(=O)c1ccccc1S2
→ 0.2	-0.35
CN(CC(=O)N1CCc2ccccc21)c1ccccc1
→ -0.09	0.85
CCOC(=O)N1CCN(C(=O)CSc2ccc(C)cc2)CC1
→ -0.19	1.9
COc1ccc(NC(=O)Cn2ncc3ccccc32)cc1OC
→ -0.39	-1
CCCC(CCC)C(=O)Nc1cc(C)c2c(=O)oc3ccccc3c2n1
→ ·	0.35
C=CCN1C(=O)C2C(C(=O)NC3CCCCC3C)C3(C)C=CC2(O3)C1C(=O)NC(C)(C)C (configuration not stated)
→ ·	-0.85
O=S(=O)(c1cc(Cl)sc1Cl)N1CCN(CCc2ccccc2)CC1
→ -1.6	-0.25
FC(F)(F)c1ccccc1-c1nnc(-c2cc3c(s2)-c2ccccc2CC3)o1
→ 10	·
COc1ccc(Sc2nc(C)c(-c3csc(C)n3)cc2C#N)cc1
→ 0.94	-0.1
C=CCSc1nnc(NC(=O)c2ccc(S(=O)(=O)N3CCCCC3)cc2)s1
→ 0.82	-1.2
Cc1nc2cc(-c3sccc3-n3c(C)ccc3C)nn2c(C)c1Cl
→ -0.42	·
O=S(=O)(NCCN1CCOCC1)c1ccc(Cl)s1
→ 0.53	·
S=C(c1cn(CCOc2ccccc2)c2ccccc12)N1CCCC1
→ -0.39	0.35
CCOC(=O)CSc1ccc(C(=O)O)c2c(C(=O)O)cccc12
→ 32	-1.4
Cc1cc2c(C(C)C)c(O)c(O)c(C=O)c2c(O)c1-c1c(C)cc2c(C(C)C)c(O)c(O)c(C=O)c2c1O
→ -1.1&-0.05	·
CCOC(=O)c1cccc(N2C(=O)C3C4C=CC(CC4)C3C2=O)c1 (configuration not stated)
→ 0.36	·
COc1cc(/C=N/S(=O)(=O)c2ccccc2)cc(OC)c1O
→ -0.94	1.8
CCCOc1ccc(-c2cc(C(=O)NCC3CCCO3)c3ccccc3n2)cc1 (configuration not stated)
→ 84	·
CNC1CCCc2ccccc21 (configuration not stated)
→ ·	0
O=C(Nc1nnc(C2=COCCO2)o1)c1ccc(Cl)cc1
→ ·	-1.5
COCc1cc(C)nc2sc(-c3nc4ccccc4[nH]3)c(NC(=O)c3ccccc3)c12
→ 1.6	·
O=C(Nc1ccc(-c2cn3cccnc3n2)cc1)c1ccco1
→ ·	-1.1

Random excerpt: 2 records from the list.
Order of results: Ba CapD inh	AID504770
O=C(Cn1cnnn1)Nc1ccc(Cl)c(Cl)c1
→ ·	0.4
FC(F)(F)c1ccccc1-c1nnc(-c2cc3c(s2)-c2ccccc2CC3)o1
→ 10	·

Next section:
Order of results: Ba CapD inh	AID504770
O=C(Oc1ccccc1)c1ccc(=O)oc1
→ 64	-0.75
CC(C)N=c1scc(-c2ccco2)n1/N=C/c1ccccc1O
→ ·	-0.95
CC1CCCCN1C(=O)CSc1nc2ccccc2c(=O)[nH]1 (configuration not stated)
→ ·	-0.35
O=C1c2ccccc2NC2(C(=O)N(Cc3ccccc3)c3ccccc32)N1C1CC1 (configuration not stated)
→ ·	0
O=S(=O)(c1ccc(-c2ccc(S(=O)(=O)N3CCCC3)s2)s1)N1CCCC1
→ -0.27	1
Cc1c(Nc2ncnc3c2cnn3-c2ccccc2)c(=O)n(-c2ccccc2)n1C
→ -0.27	·
CCNC(=O)n1cc(-c2nc3ccccc3o2)c(-c2ccncc2)n1
→ 0.23	·
CCCn1c2ccccc2c2nnc(SC(CC)C(=O)Nc3cc(C)on3)nc21 (configuration not stated)
→ -0.26	-1.1
ONC(=Nc1ccccc1)c1cccnc1
→ 0.43	-0.5
CCOC(=O)c1cccc(NC(=O)Cn2ncc3c(C)n(Cc4ccc(F)cc4)c(C)c3c2=O)c1
→ 1.3	-0.15
CCN(CC)CCN(C)Cc1c(F)cccc1F
→ 0.085	-0.5
Clc1ccccc1OCc1nc(-c2cccs2)no1
→ -1	2.5
O=C(Nc1ccc(OC(F)(F)F)cc1)C1CCc2ccccc2O1 (configuration not stated)
→ -1	-1.4
COc1ccc(C(=O)Nc2cc(C(=O)NCc3cccc(Cl)c3)ccc2N2CC3CC(C2)c2cccc(=O)n2C3)cc1 (configuration not stated)
→ 0.24	·
O=C(CSc1nc2ccccc2c(=O)n1C1CC1)c1ccc(F)cc1
→ 0.32	-0.25
O=C(c1ccc(Cl)cc1Cl)N1CCOC12CCN(c1ncccn1)CC2
→ 0.29	·
O=C(O)CCC(=O)Nc1ccc(-c2cn3ccccc3n2)cc1
→ 48	-0.55
COc1cc([C@@H]2c3cc4c(cc3C(O[C@@H]3O[C@@H]5CO[C@@H](c6cccs6)OC5[C@H](O)[C@H]3O)C3COC(=O)[C@@H]32)OCO4)cc(OC)c1O (some centres not stated)
→ ·	-0.3
COCCNc1nnc(SCC(=O)c2cc(C)n(-c3ccc4c(c3)OCO4)c2C)s1
→ ·	-0.3
C=CCNC(=O)c1ccccc1NC(=O)c1ccccc1NS(C)(=O)=O
→ 0.24	-0.85
O=C(O)CN1C(=O)/C(=C/c2ccccc2)SC1=S
→ -0.26	-0.25
COc1cc(OC)nc(-c2cccc(NC(=S)Nc3ccccc3)c2)n1
→ -0.4	·
CN(C)CCn1c2c(c3ccccc31)CCCn1cnnc1-2
→ -0.3	·
O=C(c1cc2ccc3cccnc3c2[nH]1)N1CCN(c2ccc(F)cc2)CC1
→ 1.4	0.6
N=C(N)Sc1cnc2ccccc2n1
→ 31	·
CN(CC(O)COCC1COc2ccccc2O1)C1CCCCC1 (configuration not stated)
→ -0.91	-0.9
O=S(=O)(Nc1n[nH]c(C(F)(F)F)n1)c1ccccc1
→ ·	-0.3
CCc1cc2c(cc(C(=O)OC)n2Cc2cccc(OC)c2)s1
→ -0.46	0.95
S=c1nccc(-c2ccc(-c3cccs3)s2)[nH]1
→ 49	0
CCOc1ccc(-c2cccc(NC(=O)Cc3ccc(OC)c(OC)c3)c2)nn1
→ ·	-0.2

Part of the list above, bar-delimited:
molecule | Ba CapD inh | AID504770
CN(C)CCn1c2c(c3ccccc31)CCCn1cnnc1-2 | -0.3 | ·
O=C(c1cc2ccc3cccnc3c2[nH]1)N1CCN(c2ccc(F)cc2)CC1 | 1.4 | 0.6
N=C(N)Sc1cnc2ccccc2n1 | 31 | ·
CN(CC(O)COCC1COc2ccccc2O1)C1CCCCC1 (configuration not stated) | -0.91 | -0.9

(further entries)
Order of results: Ba CapD inh	AID504770
Nc1ccc2nc(SCC(=O)O)sc2c1
→ ·	-0.05
COc1cc(OC)cc(C(=O)Nc2nc3ccc4sc(C)nc4c3s2)c1
→ ·	-0.8
O=C(Nc1ccccc1)C1CC2c3ccccc3C1c1ccccc12 (configuration not stated)
→ 0.6	1
CC(=O)Oc1ccc(N2C(=O)c3ccc(-c4nc5ccccc5c(=O)o4)cc3C2=O)cc1
→ -0.025	-0.85
O=c1cc(CSc2nnc(Nc3ccccc3)s2)nc2sccn12
→ ·	-0.5
COCCN1C(=O)/C(=C/c2cn(-c3ccccc3)nc2-c2ccccc2)SC1=S
→ -0.54	0.5
CCOC(=O)c1ccc(-n2c(=S)sc3c(=O)n(Cc4ccco4)c(SCC(=O)N(CC)CC)nc32)cc1
→ 0.07	·
CC(C)(C)c1ccc(S(=O)(=O)Nc2cc(Br)c3oc4c(c3c2)C(=O)CCC4)cc1
→ -0.095	·
FC(F)C(F)(F)COC1OCCOC1OCC(F)(F)C(F)F (configuration not stated)
→ ·	-0.45
COc1ccc(N=Cc2nc(-c3ccc(Br)cc3)oc2O)c([N+](=O)[O-])c1
→ 0.46	·
COC(=O)CC1=C(C(=O)OC)C2(C(=O)Nc3ccc(F)cc32)C(C#N)=C(N)O1 (configuration not stated)
→ ·	0.6
COc1ccc(-c2nc3ccccc3n2C)cc1OC
→ 6.4	0.5
COc1ccc(-c2nc(C#N)c(N3CCCCC3)o2)cc1
→ ·	1.2
CCOc1ccc(C2c3[nH]c4ccccc4c3CCN2C(=O)c2ccco2)cc1 (configuration not stated)
→ -0.57	·
O=C(NCCc1c[nH]c2ccccc12)c1ccc2c(=O)n3c(nc2c1)CCCCC3
→ ·	-0.4
O=C(CSc1nc2ccccc2c(=O)n1Cc1ccc2c(c1)OCO2)NC1CCCCC1
→ -0.18	-0.15
O=C1NN=C2c3ccccc3CCC12 (configuration not stated)
→ ·	-0.65
CCc1nc2ccccc2n1CC(=O)Nc1ccccc1C#N
→ 0.3	1.3
Cc1ccc(N2C(=O)CSC23C(=O)N(CN2CCC(C)CC2)c2ccccc23)cc1C (configuration not stated)
→ 0.01	·
CC(=O)Nc1ccc(-c2nc3cc(Cl)ccc3c(=O)o2)cc1
→ 1.1	-0.95
NC1=NC(=O)/C(=C/c2cccc(OC(=O)c3ccc(Cl)cc3)c2)S1
→ -0.055	·
Cc1ncc(CO)c(/C=N/N=C2\CC3CCC2(C)C3(C)C)c1O (configuration not stated)
→ ·	0.15
CC1(C)CC(=O)C2=C(C1)NC1=C(C2)C(=O)CC(C)(C)C1
→ ·	0.55
